# VACV Venus inh: inhibitors of vaccinia virus (Venus reporter). Vaccinia virus Venus reporter expression, fluorescence. Potency, µM (doses to about 36.5 µM), without a hit: at the top dose activity change, negative = inhibition, usual class: inhibitors. hit rate 0.46% among 330,000. AID 720580; active means well fitted inhibition curve with a large enough effect; inconclusive means small, poorly fitted or top-dose-only effect; inactive means no such curve, though single readings can be large or run the other way; tested in A549 cells; also: nearly all actives have a fitted effect of over 30% in size; inactives centre near -10
# Vaccinia mCherry: vaccinia inhibition (mCherry reporter) | Vaccinia virus mCherry reporter infection, fluorescence; about a quarter of the inactives have no number | Potency, µM (top dose mostly 36.5 µM), without a hit: at the highest dose activity change, negative = inhibition, most hits filed as inhibitors | hit rate 0.63% among 310,000; active = well fitted inhibition curve with a large enough effect; inconclusive = small, poorly fitted or top-dose-only effect; inactive = no such curve, though single readings can be large or run the other way; tested in A549 cells; also: nearly all actives have a fitted effect of over 35% in size; inactives centre near -10
# Numbers without * were called inactive; i = inactive; u = inconclusive; x = not tested or not shown. % is scaled to controls: 0 for no effect and ±100 for the full control effect; potency is read from the fitted curve at half-maximal effect. Random draw from the library; 0.86% or so of the library scored in one or more.
# Order of values – VACV Venus inh | Vaccinia mCherry
> O=C(Nc1ccc(Cl)c([N+](=O)[O-])c1)C(NCCCO)c1ccccc1 (stereo not drawn)
    5% | -18%
> NNC(=O)c1ccc(COCC(F)(F)F)cc1
    4% | 0%
> Cc1nc2cc(C(=O)N3CCC4(CC3)OCCO4)ccc2n1-c1ccc(Br)cc1
    -11% | x
> O=C(c1ccco1)N(Cc1ccccc1)Cc1ccccn1
    -15% | i
> COc1ccc(Cl)cc1NC(=O)CCC(=O)N1CCOc2ccccc21
    -16% | -12%
> C=CCNC(=O)CN(CCc1ccccc1)S(=O)(=O)c1ccccc1
    3% | u
> COc1cccc(OCC(=O)NC2CC(=O)N(c3ccc4c(c3)OCCO4)C2)c1 (stereo not drawn)
    -8% | -13%
> CCN(CC)S(=O)(=O)c1ccc(N=Nc2cc(C)cc(Br)c2O)cc1
    1% | -15%
> O=C(Cn1ncc2c1-c1ccccc1OC2)N1CCc2ccccc21
    -18% | -26%
> O=C(Nc1ccc2c(c1)OCO2)C1CCN(C(=O)c2ccc(Cl)cc2)CC1
    -25% | -16%
> CCOC(=O)c1cc(CC)sc1NC(=O)COc1ccc2c(C)cc(=O)oc2c1
    -10% | i
> CCC(=O)N1CCc2cc(Br)cc(S(=O)(=O)CCC(=O)NCc3ccccc3OC)c21
    -14% | -15%
> Cc1c(C(=O)NCC2CCCO2)oc2ccc(S(=O)(=O)N3CC(C)CC(C)C3)cc12 (stereo not drawn)
    -17% | i
> O=C(ONC1=NCCCCC1)c1ccc([N+](=O)[O-])cc1
    -15% | -7%
> CN1C(=O)CN(CCN2CC(=O)N(C)C(=O)C2)CC1=O
    -2% | i
> CCOC(=O)c1oc2ccccc2c1COC(=O)CNC(=O)c1cc(OC)c(OC)c(OC)c1
    -7% | -24%
> CCC(c1nnnn1-c1ccc2c(c1)OCCO2)N1CCN(c2cccc(C)c2C)CC1 (stereo not drawn)
    -6% | i
> CCCCNC(=O)c1cc2c(-c3ccc(Cl)cc3)nn(C)c2s1
    -7% | i
> Cc1ccc(CNC(=O)N2CCN(C)CC2)cc1
    -2% | i
> COc1ccc(NC(=O)C2CCN(S(=O)(=O)c3c(C)noc3/C=C/c3cccs3)CC2)cc1
    -23% | -14%
> CC(=O)NCC1CCCN(Cc2cn(-c3ccccc3)nc2-c2ccc3c(c2)OCO3)C1 (stereo not drawn)
    -7% | -3%
> Cc1c(-c2csc(N)n2)cnn1C
    -6% | i
> O=C1CCCc2[nH]c3cccc(/C(=C/c4ccccc4)c4ccccc4)c3c21
    -15% | -15%
> O=C(NO)c1ccc(OC(F)F)cc1
    -17% | -13%
> C=CC[C@@H](CC(=O)N[C@H](CO)Cc1ccccc1)C(=O)NC[C@H](OC(=O)[C@@H](CC=C)Cc1ccc(F)cc1)c1ccccc1
    -30% | i
> Cc1onc(-c2ccccc2)c1C(=O)N1CCN(Cc2ccccc2)CC1
    -16% | -13%
> CCN(CC)S(=O)(=O)c1ccc2c(c1)c(C(=O)O)cn2C
    21% | x
> O=C(CCl)c1ccc2c(c1)CCN2C(=O)C1CCCCC1
    -12% | i
> S=c1[nH]nc(-c2cc(-c3ccccc3)n[nH]2)n1/N=C/C(Br)=C/c1ccccc1
    u | 14µM*
> COc1ccc(NC(=O)CSc2nc(N)cc(=O)[nH]2)cc1S(=O)(=O)N1CCCCC1
    -4% | -14%
> Cc1ccc(C(=O)C(C)OC(=O)CNC(=O)c2ccc(Br)o2)cc1 (stereo not drawn)
    -6% | -2%
> CCOC(=O)CN1C(C(=O)c2ccccc2)=C(OC(=O)c2ccccc2)c2ccccc2S1(=O)=O
    -20% | -20%
> O=C(O)c1cc(N2N=C(C(F)(F)F)/C(=C/C=C/c3ccco3)C2=O)ccc1Cl
    18% | 2%
> CN(C)c1ccc(/C=c2\[nH]c(=O)/c(=C/c3ccc(N(C)C)cc3)[nH]c2=O)cc1
    -12% | i
> Cc1cc(C)cc(CC2CC(=O)N(c3cc(C)ccc3C)C2=O)c1 (stereo not drawn)
    -6% | -19%
> CCOc1ccc(C(=O)NCC(C)CN(C)C)cc1OCC (stereo not drawn)
    -8% | -5%
> CC(=O)C[C@@H](O)CC(=O)[C@@H]1OC(=O)[C@H](C)CCCCc2ccccc21
    0% | -16%
> CCc1ccc(NC(=O)c2sc3nc(C)c(C(=O)Nc4ccc(C)cc4C)c(-c4ccco4)c3c2N)cc1
    6% | 12%
> CCOC(=O)c1sc2nc(-c3ccccc3)ccc2c1N
    1% | -12%
> O=C(NCc1ccco1)c1ccc(F)c(S(=O)(=O)N2CCCCC2)c1
    -9% | -7%

# Reprinted at random: 2 entries already listed.
# Order of values – VACV Venus inh | Vaccinia mCherry
> O=C(NCc1ccco1)c1ccc(F)c(S(=O)(=O)N2CCCCC2)c1
    -9% | -7%
> O=C(O)c1cc(N2N=C(C(F)(F)F)/C(=C/C=C/c3ccco3)C2=O)ccc1Cl
    18% | 2%

# Next compounds follow.
# Order of values – VACV Venus inh | Vaccinia mCherry
> Cc1cc(=O)[nH]c(SCC(=O)Nc2ccccc2[N+](=O)[O-])n1
    -4% | u
> Cc1c(NC(=O)c2cc3ccccc3o2)cccc1-c1nc2ccccc2o1
    -9% | -20%
> Cc1ccc(C)c(N2CCN(c3nc4ccccc4c4nc(CCn5nc(C)cc5C)nn34)CC2)c1
    3% | i
> O=C(NC(=S)Nc1ccc2ncccc2c1)c1ccccc1
    -14% | -26%
> Cc1cnc(C(=O)Nc2cccc3cccnc23)cn1
    u | u
> O=C(Nc1nnc(C2=COCCO2)o1)c1ccc(S(=O)(=O)N2CCCCC2)cc1
    -15% | -16%
> O=C(Nc1ccc2nc(SCC(=O)N3CCCC3)sc2c1)c1ccccc1
    -11% | -11%
> Cc1cccc(C(=O)NC(C)C(c2cccs2)N2CCOCC2)c1 (stereo not drawn)
    -6% | i
> O=C(N/N=C/c1cccnc1)c1cccc(N2CCCC2=O)c1
    1% | i
> COC(=O)CN1C(C)=Nc2ccc(C)cc2C1c1ccccc1 (stereo not drawn)
    -2% | u
> CCOC(=O)[C@@H]1[C@H]2COc3ccccc3[C@H]2N2C(=O)N(c3ccc(C(F)(F)F)cc3)C(=O)[C@]12C
    -23% | -29%
> Cc1ccc2c(c1)C1C[N+](C)(CC(=O)Nc3ccccc3Cl)CCC1N2C(=O)c1ccccc1Cl (stereo not drawn)
    3% | -12%
> Cc1c(CNC(C)CCc2ccccc2)c(C(=O)O)c(C)n1Cc1ccc(F)cc1Cl (stereo not drawn)
    -6% | -14%
> O=C(NC1=NCCS1)NC12CC3CC(CC(C3)C1)C2
    -12% | -3%
> Cc1cc(N2CCCCC2)nc2ccccc12
    2% | -8%
> Cc1ccc(S(=O)(=O)NN=C2CC3CC2C2CCCC32)cc1 (stereo not drawn)
    -24% | -6%
> Cn1c(SCC(=O)c2ccc(F)cc2)nnc1-c1ccccc1Br
    1% | 3%
> O=S(=O)(c1ccc(F)cc1F)N1CCCN(c2ccc(C(F)(F)F)cn2)CC1
    -5% | -13%
> O=C(COC(=O)[C@@H]1CCCN1C(=O)c1cccs1)Nc1ccc(Br)cc1
    6% | -3%
> COc1ccc(C)cc1NC(=O)C1CCN(S(=O)(=O)c2cc(Br)cc3c2N(C(C)=O)CC3)CC1
    -7% | -6%
> c1cc2c3c(cccc3c1)NC1(CCCC1)N2
    -19% | -13%
> Cc1ccc(NC(=O)c2c(N3CCCC3=O)c3cc(C)ccc3n2C)c(C)c1
    5% | -11%
> COc1ccc(N2CCN(C(=O)CSc3nc(C)cs3)CC2)cc1
    -6% | -23%
> CC(Nc1nc(-c2ccc(F)cc2)cs1)c1nc2cc(Cl)c(N3CCCCC3)cc2n1CCCO (stereo not drawn)
    u | u
> CCOc1ccccc1OCCOc1ccc(F)cc1
    -15% | -17%
> Cc1ccc(S(=O)(=O)N2CCN(c3cc4c(cc3[N+](=O)[O-])n(C)c(=O)n4C)CC2)cc1
    -7% | i
> O=C(NCCO)c1nc(C(=O)c2ccccc2)c2ccccc2n1
    4% | -15%
> CCc1ccccc1NC(=O)CN1C(=O)C2CCCN2c2ncc(Cl)cc21 (stereo not drawn)
    -5% | -9%
> Cc1cc(C)n(CCNC(=O)c2ccco2)n1
    -6% | i
> O=C(/C=C/c1cccs1)NCc1ccccc1
    -11% | i
> O=C(Nc1cccc(Cl)c1)Nc1ccccc1-n1ccnc1
    5% | i
> CCOc1ccc(CC(=O)Nc2ccc3nc(N4CCCCC4)cc(C)c3c2)cc1OCC
    -18% | -19%
> O=C(NNC(=S)Nc1ccc(OC(F)F)cc1)c1cc2c(s1)CCCC2
    -11% | -14%
> CCCC1=Nc2cc(C(=O)NCCc3ccc(OCC)cc3)ccc2Sc2ccccc21
    u | u
> C#CCSc1nc2ccccc2c(=O)n1CC=C
    -10% | 1%
> CCC1(c2ccccc2)NC(=O)N(CC(=O)Nc2cc(S(=O)(=O)N3CCCCC3)ccc2N(C)C)C1=O (stereo not drawn)
    -3% | i
> O=C(N/N=C/c1cc(Br)ccc1O)C(c1ccncc1)N1CCOCC1 (stereo not drawn)
    u | u
> CCOc1ccccc1C(=O)NCCCCCC(=O)O
    -9% | -13%
> Cc1ccc(/C=C/C(=O)Nc2cc(C)on2)cc1
    -7% | -12%
> CC(NC(=O)Cn1cc2c(n1)CCCCC2)c1ccccc1 (stereo not drawn)
    -1% | -9%

# 4 entries from above, as labelled records.
> O=C(Nc1cccc(Cl)c1)Nc1ccccc1-n1ccnc1
  VACV Venus inh: 5%	Vaccinia mCherry: i

> CCOc1ccc(CC(=O)Nc2ccc3nc(N4CCCCC4)cc(C)c3c2)cc1OCC
  VACV Venus inh: -18%	Vaccinia mCherry: -19%

> O=C(NNC(=S)Nc1ccc(OC(F)F)cc1)c1cc2c(s1)CCCC2
  VACV Venus inh: -11%	Vaccinia mCherry: -14%

> CCCC1=Nc2cc(C(=O)NCCc3ccc(OCC)cc3)ccc2Sc2ccccc21
  VACV Venus inh: u	Vaccinia mCherry: u

# (cont.)
smiles | VACV Venus inh | Vaccinia mCherry
CC(C)C(c1nnnn1CCc1ccccc1)N1CCC(C(N)=O)CC1 (stereo not drawn) | -2% | -23%
Cc1cccc(/C=N\N=C\c2cccc(C)c2)c1 | -17% | i
Cc1ccc(OCC(=O)NCCCNC(=O)COc2ccc(C)cc2)cc1 | -7% | i
CC12CN3C(O)C(C)(C1)CC(C)(C2)C3O (stereo not drawn) | -11% | i
O=C(COc1ccc(Br)cc1)NCc1cn2ccccc2n1 | -16% | -1%
O=C(CO/N=C/c1ccc2c(c1)OCO2)Nc1cccc(Br)c1 | 2% | 1%
Cn1ccc(C(=O)OCC(=O)Nc2cccc(Cl)c2)n1 | -3% | i
CC(=O)NC(CCS(C)(=O)=O)C(=O)Nc1cccc(C)c1C (stereo not drawn) | 2% | i
Cc1c(CN2CCCCC2)c(O)n(CCO)c(=O)c1C#N | 14% | i
CN1C2=NCCN2C(=O)c2cc(Cl)ccc21 | -11% | -7%
CC1CCCN(S(=O)(=O)c2cc(C(=O)NCc3ccccc3Cl)n(C)c2)C1 (stereo not drawn) | -18% | -19%
O=C(Nc1ccc2c(c1)OCO2)c1ccc(N2CCCC2)c([N+](=O)[O-])c1 | -24% | u
O=C(OCCn1c(=S)sc2ccccc21)c1ccccc1 | -3% | i
Cn1c(C(=O)N2CCCC(C(=O)NCCCc3ccccc3)C2)cc2sccc21 (stereo not drawn) | -20% | u
CC(=O)c1cccc(N=C2C(=O)Nc3ccccc32)c1 | -7% | -9%
COC(=O)c1ccccc1NC(=O)N1CCN(c2ccccc2)CC1 | -13% | -7%
O=C(Nc1nc2cc3c(cc2s1)OCO3)C1=COCCO1 | -26% | u
CC(CCN1C(N(C)C)=NC[C@@H]1C)c1ccccc1 (stereo partly drawn) | -19% | i
CN(Cc1ccccc1)C(=O)C1CCCN(c2ncnc3c2nc2n3CCCCC2)C1 (stereo not drawn) | -13% | -1%
Cc1ccc(Cl)cc1NC1=C/C(=N\S(=O)(=O)c2cccs2)c2ccccc2C1=O | u | 25µM*
CCn1c(C(=O)NCCc2ccc(S(N)(=O)=O)cc2)cc2sc(Cl)cc21 | -16% | -20%
CN(Cc1ccccc1)S(=O)(=O)c1ccc(F)c(C(=O)Nc2cc(Cl)cc(Cl)c2)c1 | -7% | -8%
COc1ccc(NC(=O)c2cc(S(=O)(=O)N3CCc4ccccc43)cn2C)cc1OC | -4% | i
CCOc1cc(/C=N\Nc2nc(Nc3ccccc3)nc(N3CCOCC3)n2)ccc1OC(=O)c1ccco1 | u | u
OCCCNc1nc(-c2ccccc2)nc2c1oc1ccccc12 | -25% | -2%
CC1CCC2(CC1)NC(=O)N(CC(=O)NCCc1ccccc1)C2=O (stereo not drawn) | -8% | i
COc1ccccc1C(=O)NC(=O)CSc1nc(C)cs1 | -15% | -16%
Cc1ccc([C@H]2C[C@H](n3cc(-c4ccc(F)cc4)nn3)[C@@H](O)CN2C(=O)C2CCCCC2)cc1 | -10% | -5%
COc1ccc(CCNC(=O)CCn2c(=O)oc3ccccc32)cc1OC | -25% | i
C=CCn1c(C(c2ccccc2)c2ccccc2)n[nH]c1=S | -4% | -12%
CC(C)(C)c1csc(NC(=O)Cc2cccs2)n1 | -12% | -4%
COc1cc(C2CC(=O)Nc3c2c(=O)n(C)c2ncnn32)cc(OC)c1OC (stereo not drawn) | 3% | -1%
C=CCNC(=O)CN1C(=O)C2C3c4ccccc4C(c4ccccc43)C2C1=O (stereo not drawn) | -3% | -8%
C(=N\n1cnnc1)/c1ccc2ncccc2c1 | -3% | -6%
CC(=O)c1c(C)[nH]c(C(=O)COc2ccc3ccc(=O)oc3c2)c1C | -24% | -25%
